SARS PLpro yeast: qHTS of Yeast-based Assay for SARS-CoV PLP. AID 485353, 2010. S. cerevisiae expressing SARS-CoV PLpro, growth rescue; control for the full effect not named in the record. Potency, µM (series often up to 32.9 µM), inactives show top-dose activity, positive = growth rescue. actives 0.19% (n = 330,000); active means well fitted rising curve with a large enough effect; inconclusive means small, poorly fitted or top-dose-only effect; inactive means no such curve, though single readings can be large or run the other way; further: 0% is about no effect; nearly all actives have a fitted effect of over 55% in size; growth read by luminescence after 48 h
NS1 inh: qHTS Assay for Inhibitors of Influenza NS1 Protein Function. S. cerevisiae slowed by influenza A NS1, growth recovery by OD600. actives 0.4% (n = 270,000). Potency, µM (series often up to 46.1 µM), for inactives: at the highest dose activity, positive = more growth; active means well fitted rising curve with a large enough effect; inconclusive means small, poorly fitted or top-dose-only effect; inactive means no such curve, though single readings can be large or run the other way; further: nearly all actives have a fitted effect of over 50% in size
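S. cerevisiae expressing influenza A NS1, grown in glucose, washed, then diluted 1:100 into pH 6.0 -URA galactose medium with 23 nl compound. Growth recovery read as OD600; NS1-free strain serves as control.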
Cruzain inh Det: qHTS Assay for Promiscuous and Specific Inhibitors of Cruzain (with detergent). AID 1478, 2009. Cruzipain (Trypanosoma cruzi), P25779. actives 0.43% (n = 200,000). purified cruzain, Z-FR-AMC fluorescence, 0.01% Triton. Potency, µM, for the others: max response, negative = inhibition, most hits filed as inhibitors;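 further: plate controls were neutral wells for no effect and buffer without enzyme for full effect; nearly all actives have a fitted effect of over 40% in size; top concentration of the series not given in the record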
Target sequence (P25779 123-467 limits assumed): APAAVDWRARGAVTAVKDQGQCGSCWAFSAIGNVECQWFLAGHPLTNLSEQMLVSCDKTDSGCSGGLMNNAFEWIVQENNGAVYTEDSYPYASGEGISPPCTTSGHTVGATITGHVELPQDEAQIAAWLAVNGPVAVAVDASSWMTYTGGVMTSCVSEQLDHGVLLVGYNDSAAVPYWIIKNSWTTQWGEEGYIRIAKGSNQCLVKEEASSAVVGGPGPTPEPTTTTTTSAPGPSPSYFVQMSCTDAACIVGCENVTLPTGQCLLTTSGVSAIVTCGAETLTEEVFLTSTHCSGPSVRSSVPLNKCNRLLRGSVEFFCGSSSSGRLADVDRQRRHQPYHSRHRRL
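Steps: dispense cruzain (1.5 nM final) in acetate buffer pH 5.5 with DTT and 0.01% Triton X-100; pin-transfer compounds; incubate 15 min RT; add Z-FR-AMC (2 uM final); read fluorescence every 30 s, using the 60 s intensity change.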
RE007 growth inh: qHTS Assay for Inhibitors of the HIV-1 protein Vpr; Potency, µM (highest dose often 92.2 µM), for the others: at the highest dose activity change, negative = less growth; actives 0.21% (n = 360,000); S. pombe RE007 Vpr strain, BacTiter-Glo ATP luminescence, 24 h; control for the full effect not named in the record; AID 651644, 2012; active = well fitted falling curve with a large enough effect; inconclusive = small, poorly fitted or top-dose-only effect; inactive = no such curve, though single readings can be large or run the other way;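 further: on the % scale 0 is the no-effect control and ±100 the full control effect; nearly all actives have a fitted effect of over 50% in size; the assay follows cell death caused by Vpr and the record does not say whether a fall means rescue or toxicity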
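Fission yeast RE007 carrying one integrated HIV-1 vpr copy, seeded at OD 0.01 in PMG+AL medium with 23 nL pinned compound. Grown 24 h at 30 degrees; viability read by BacTiter-Glo luminescence after 5 min.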
Cruzain inh noDet: qHTS Assay for Promiscuous and Specific Inhibitors of Cruzain (without detergent); Cruzipain (Trypanosoma cruzi), P25779; purified cruzain, Z-FR-AMC fluorescence, no detergent; Potency, µM, without a hit: max response, negative = inhibition, hits mostly inhibitors; actives 2.3% (n = 200,000); AID 1476, 2009;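 further: plate controls were enzyme without inhibitor for no effect and buffer without enzyme for full effect; nearly all actives have a fitted effect of over 40% in size; top concentration of the series not given in the record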
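Purified cruzain at 1.5 nM, pre-incubated 15 min with compound at room temperature in 100 mM sodium acetate pH 5.5, 5 mM DTT, 0.00005% Triton X-100. Reaction started with 2 uM Z-FR-AMC; AMC fluorescence increase over 60 s gives rate.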
StopGo reporter: High Throughput Screening for Foot and Mouth Disease Virus Antivirals | human cells with a luciferase reporter of 2A StopGo recoding; control for the full effect not named in the record | Potency, µM (series often up to 57.9 µM), for inactives: top-dose signal change, negative = less light | actives 1.2% (n = 410,000) | AID 1159524, 2015; active = well fitted falling curve with a large enough effect; inconclusive = small, poorly fitted or top-dose-only effect; inactive = no such curve, though single readings can be large or run the other way; tested in HEK293T cells; further: on the % scale 0 is the no-effect control and ±100 the full control effect; nearly all actives have a fitted effect of over 45% in size; luciferase light after 4 h
MARV entry inh: qHTS for inhibitors of binding or entry into cells for Marburg Virus; Marburg virus pseudotyped entry inhibition, cell reporter; control for the full effect not named in the record; about a third of the inactives were read at about 46 µM; Potency, µM (titrated, usually from 37.8 µM), without a hit: at the highest dose activity change, negative = inhibition, most hits filed as inhibitors; actives 1.8% (n = 300,000); AID 540276, 2011; active = well fitted inhibition curve with a large enough effect; inconclusive = small, poorly fitted or top-dose-only effect, or effect the other way; inactive = flat fitted curve, though single readings scatter; tested in HEK293 cells; about a fifth of its hits are not listed in these tables; further: on the % scale 0 is the no-effect control and ±100 the full control effect; luciferase read-out
Lassa entry inh: qHTS for Inhibitors of binding or entry into cells for Lassa Virus | Lassa virus pseudotype entry inhibition, cell reporter; control for the full effect not named in the record | Potency, µM (highest dose often 37.9 µM), without a hit: at the top dose activity change, negative = inhibition, actives largely listed as inhibitors | actives 1.2% (n = 300,000); active means well fitted inhibition curve with a large enough effect; inconclusive means small, poorly fitted or top-dose-only effect, or effect the other way; inactive means flat fitted curve, though single readings scatter; tested in HEK293 cells; further: on the % scale 0 is the no-effect control and ±100 the full control effect; nearly all actives have a fitted effect of over 50% in size; luciferase read-out
* marks the source's active call; other numbers are inactive results; ? = inconclusive; / = not tested or not shown; & = joins results of further samples; [ ] = another dose, or the depositor's remark. Unless noted, the call rests on the fitted dose curve; in most records, active means well fitted curve in the direction sought with a large enough effect; inconclusive means small, poorly fitted or top-dose-only effect, or another doubt; inactive means no such curve, though single readings can be large; an effect the other way counts as inactive or inconclusive. Potency means the concentration at half of the fitted maximal effect.

structure	NS1 inh	Cruzain inh Det	SARS PLpro yeast	Cruzain inh noDet	StopGo reporter	RE007 growth inh	MARV entry inh	Lassa entry inh
O=C(/C=C/c1ccc2c(c1)OCO2)NCCSCc1ccc(Cl)cc1	-46%	-7.6%	1%	-1%	?	-3%	?	?
Cc1cccc(Oc2c([N+](=O)[O-])c(=O)n(C)c3ccccc23)c1	-8%	/	-3%	/	?	6%	?	?
COC(=O)C1CCN(C(=O)CCCOc2ccccc2)CC1	?	3.6%	-1%	5%	-20%	1%	3%	-26%
COC(=O)c1cc2occc2n1Cc1nc(-c2ccccc2F)oc1C	1%	-0.1%	0%	12%	-22%&-9%	21%	21%&21%[46.1 µM]	/
CC(=O)Nc1cccc(NC(=O)Nc2cccc(F)c2)c1	1%	/	-1%	/	25%	1%	/	/
COCCNC(=O)C(=O)NCC(c1cccnc1)N1CCN(c2ccccc2F)CC1 (stereo not given)	/	-1.5%	/	-9%	0%	/	/	-20%[46.1 µM]
CCOc1ccc2nc(NC(=S)N(C)C)sc2c1	-141%	-12%	-10%	0%	-3%	-8%	-29%	-27%
COCCN1C(=O)C(=O)/C(=C(/O)c2ccc(S(=O)(=O)N3CCOCC3)cc2)C1c1ccc(O)c(OC)c1 (stereo not given)	-2%	/	-3%	/	-9%	-1%	/	/
CCN1CCN(S(=O)(=O)c2cccc(S(=O)(=O)N3CCOCC3)c2)CC1	2%	/	-1%	/	-7%	-1%	0%[46.1 µM]	3%
CN(C)c1ccc(C(=O)c2ccccc2)cc1	-45%	-5.8%	-12%	-4%	20%	?	7%	5%
COc1ccc(NC(=S)N2CCN(Cc3ccccc3)CC2)c(OC)c1	4%	/	0%	/	-23%	-20%	/	/
COc1ccc(/C(N)=N/OC(=O)CSc2ccc(C)cc2)cc1OC	-4%	-8.2%	-13%	?	-12%	-13%	6%	-11%
CCCCn1c(SCC(=O)c2ccc3c(c2)NC(=O)CO3)nc2cc(S(N)(=O)=O)ccc21	?	/	0%	/	-27%	15%	/	/
CC(=O)N(C)C(c1ccc(N(C)C)cc1)c1nnnn1-c1c(C)cccc1C (stereo not given)	-4%	-1.0%	29%	?	-16%	-5%	-15%	-16%
CCOC(=O)C(NCc1ccc2c(c1)OCO2)(NC(=O)CC)C(F)(F)F (stereo not given)	?	3.3%	0%	1%	-9%	-10%	27%	-1%
O=[N+]([O-])c1ccc(COc2cccc(CNc3ccc(F)cc3)c2)cc1	19%	-8.1%	2%	3%	-7%	-11%	?	-25%
COc1ccc(C2C(C(=O)Nc3ccc(F)cc3)=C(C)Nc3nc(CCCO)nn32)cc1 (stereo not given)	8%	3.2%	7%	12%	-9%	-7%	-6%	/
CC1CCCN(C(=O)Cn2c(-c3nonc3N)nc3ccccc32)C1 (stereo not given)	18%	-2.4%	0%	-2%	-19%	15%	-28%	8%
CCOc1cc(NC(=S)NCC2CCCO2)c(OCC)cc1NC(=O)CC (stereo not given)	3%	/	0%	/	-2%	0%	/	/
CS(=O)(=O)NCCSCc1c(Cl)cccc1Cl	-4%	1.0%	-7%	2%	-2%	7%	3%	-8%
CS(=O)(=O)c1cc([N+](=O)[O-])c(Sc2nc3ccccc3[nH]2)c([N+](=O)[O-])c1	4%	?	-7%	?	?	0%	13µM*	20%
CCCn1c(=NC(=O)c2c(-c3c(F)cccc3Cl)noc2C)c(C(=O)OCC)cc2c(=O)n3ccccc3nc21	7%	0.4%&-4.4%	-13%	?	-5%	/	14%&14%[46.1 µM]	?
c1ccc2cc(Sc3ncnc4c3oc3ccccc34)ccc2c1	-1%	0.6%	1%	-11%	?	19%	2%	7%
CCCCSc1c(C)c2cc3c(cc2[nH]c1=O)OCO3	-7%	-0.7%	-5%	?	-12%	17%	-24%	10%
COc1ccccc1-n1ccnc1SCC(=O)NCC1CCCO1 (stereo not given)	0%	/	-9%	/	-2%	-2%	/	/
CC[C@H]1OC(=O)[C@H](C)[C@@H](O[C@H]2C[C@@](C)(OC)[C@@H](O)[C@H](C)O2)[C@H](C)[C@@H](O[C@@H]2O[C@H](C)C[C@H](N(C)C)[C@H]2O)[C@](C)(O)C[C@@H](C)C(=NOCOCCOC)[C@H](C)[C@@H](O)[C@]1(C)O	-36%	/	-1%	/	0%	?	/	/
Cc1nc2ccccc2c(=O)n1NC(=O)c1ccc(F)cc1Cl	-3%	-1.3%	0%	9%	/	-17%	-16%	-10%
O=C(CCn1cnc2ccccc2c1=O)Nc1nc(-c2ccc(Br)cc2)cs1	7%	6.3%	-13%	25µM*	-16%	-9%	?	-3%
Cc1cccc(C(=O)NCC(=O)OCC(=O)NC2CCCCCCC2)c1	/	/	1%	/	-15%	-11%	?	8%
CCc1ccc(NC(=O)CSc2nncn2-c2cccnc2)cc1	-11%	/	1%	/	89%[activator]	-1%	?	?
CCOc1ccc(/C=C2\CCc3ccccc3C2=O)cc1	-2%	/	-4%	/	?	-3%	?	?
CCN(CC)S(=O)(=O)c1cccc(C(=O)N[C@H](C(=O)O)C(C)C)c1	9%	4.9%	-2%	-4%	-24%	1%	17%	6%
COc1ccc(N2C(=O)CSC23C(=O)N(CC(=O)NC2CCCCC2)c2ccccc23)cc1 (stereo not given)	/	-2.0%	/	0%	-3%	/	/	2%[46.1 µM]
Oc1cccc(C2c3[nH]c4ccccc4c3CCN2Cc2cnn(-c3ccccc3)c2)c1 (stereo not given)	-2%	/	0%	/	-17%	3%	-8%[46.1 µM]	?
O=c1ncn(-c2cccc(F)c2)c2ncccc12	5%	-1.1%	9%	0%	-17%	-5%	4%	0%
O=C(O)c1cc2c([nH]c1=O)CCCC2	?	-4.5%	1%	3%	-16%	16%	1%[46.1 µM]	2%
N#Cc1cc2cc3c(cc2nc1SCC(=O)N1CCOCC1)OCO3	-6%	/	3%	/	25%	-18%	-1%[46.1 µM]	-16%
Cc1ccc(S(=O)(=O)NC(=O)c2ccc(-c3ccc(-c4ccccc4)cc3)o2)c(C)c1	-44%	?	-62%	12%	/	/	7%	?
COc1ccccc1C(=O)NC1CCCc2ccccc21 (stereo not given)	-20%	/	-3%	/	19%	-23%	?	-24%[46.1 µM]
Cn1c(=O)c(=O)n(C)c2cc(S(=O)(=O)CCC(=O)N3CCCCC3)ccc21	6%	/	-2%	/	-20%	4%	/	/
COC(=O)c1c(NC(=O)c2ccco2)sc(C)c1C	-19%	-8.6%	-9%	10%	-9%	0%	1%	-1%
O=C1Nc2ccccc2Oc2cc([N+](=O)[O-])ccc21	/	/	-12%	/	7%	?	10%[46.1 µM]	10%[46.1 µM]
CCOC(=O)CSc1ncc(OC)c(Sc2ccc(Cl)cc2)n1	-19%	-6.0%	1%	6%	-16%	-28%	14%	3%
COc1cccc(CNC(=O)CCl)c1	0%	0.1%	25%	2%	-6%	-9%	8%	-3%
Cc1ccccc1OCC(=O)N1N=C(C(F)(F)F)CC1(O)C(C)(C)C (stereo not given)	-25%	-6.5%	-11%	21%	-21%	-5%	10%	0%
Cc1ccc(S(=O)(=O)NNc2ccccc2)cc1	-10%	-0.9%	-14%	-20%	25%	-1%	16%	-12%
COc1ccc(C)cc1NC(=O)Nc1cccc(OCc2cc(=O)n3ccc(C)cc3n2)c1	/	1.3%	/	-1%	-5%	/	/	21%[46.1 µM]
C=CCn1c(=O)c2c(nc3n2CCCN3CCc2ccccc2)n(C)c1=O	-7%	/	-1%	/	-26%	-10%	/	/
Cc1nnc(-c2cccc(Br)c2)c2cn(-c3ccccc3Cl)nc12	0%	-3.2%	1%	4%	?	-6%	1%	-26%
Cc1cccc2cc(CN(Cc3cccs3)C(c3nnnn3C3CCCC3)C(C)C)c(=O)[nH]c12 (stereo not given)	?	0.1%	0%	?	-19%	-5%	?	-2%
CC(O)CCc1nc2ccc(C(=O)O)cc2[nH]1 (stereo not given)	-3%	0.9%	4%	0%	-8%	5%	7%	17%
Cc1ccc(S(=O)(=O)N2CCCC(C(=O)O)C2)s1 (stereo not given)	2%	5.8%	-3%	-4%	?	22%	/	/
CCCCn1c(N)c(N(CC)C(=O)c2c(CC)noc2C)c(=O)[nH]c1=O	/	/	2%	/	-6%	7%	-14%[46.1 µM]	16%
CNN/C(N=Cc1ccc([N+](=O)[O-])s1)=N\S(=O)(=O)c1cc(C)c(Cl)cc1SCc1ccccc1	/	/	/	/	-9%	-7%	-9%	-1%
CCN1CCc2c(OCC(=O)N3CCCCC3)cccc2C1=O	/	/	-3%	/	4%	29%	17%[46.1 µM]	1%
Cc1ccsc1C(=O)Nc1ccc(OCc2ccccc2)cc1	6%	/	-4%	/	30%[activator]	7%	32%[46.1 µM]	1%[46.1 µM]

Later entries:
structure	NS1 inh	Cruzain inh Det	SARS PLpro yeast	Cruzain inh noDet	StopGo reporter	RE007 growth inh	MARV entry inh	Lassa entry inh
Cc1nnc(C)n1/N=C/c1cccnc1	10%	-3.6%	-12%	3%	-1%	5%	-1%[46.1 µM]	-15%
O=C(CSc1nnc(CN2CCOCC2)n1-c1ccccc1)Nc1ccc(Cl)cc1	-13%	-0.6%	13%	?	15%	-6%	-12%	-23%
COC(=O)c1c(C)oc(C)c1S(=O)(=O)N1CCCCC1	-3%	/	-1%	/	3%	-3%	10%	4%
COCCNC(=O)CN1N=C(c2ccc(OC)cc2)CCC1=O	3%	/	1%	/	0%	86%	2%[46.1 µM]	0%[46.1 µM]
Cc1cccc(/C=N/NC(=O)C[n+]2ccccc2)c1	/	/	1%	/	-8%	20%	9%	7%[46.1 µM]
